# Compound activity: PubChem, National Center for Advancing Translational Sciences (NCATS)
# Sfp PPTase inh: Sfp phosphopantetheinyl transferase inhibition. Q9F4F7. Biochemical Sfp PPTase activity, qHTS. Potency, µM, without a hit: max response, negative = inhibition, hits mostly inhibitors. actives 3.5% (n = 310,000). AID 1490; active = well fitted inhibition curve with a large enough effect; inconclusive = small, poorly fitted or top-dose-only effect, or another doubt; inactive = no such curve, though single readings can be large or run the other way;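 also: the enzyme is Sfp with the accession as filed and its product quenches rhodamine fluorescence; 0% = enzyme reaction without inhibitor and -100% = no enzyme wells; top concentration of the series not given in the record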
#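 With Hepes-Na pH 7.6 buffer containing 10 mM MgCl2, Sfp (15 nM) modified BHQ-2-YbbR (12.5 uM) using rhodamine-CoA (5 uM). Two reads 30 minutes apart at 525/598 nm yielded each well's rate.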
# Active calls of the source: *; ? = inconclusive; & = joins results of further samples; ! = not active in a repeat; [ ] = dose if it differs, or a comment. Potency is read from the fitted curve at half-maximal effect. An excerpt. The share of hits here may be higher or lower than overall.
SMILES,Sfp PPTase inh
O=C1C=CC(=O)c2c1ccc1c2ccc2ccccc21,3.5µM*
O[C@@H]1[C@H](O)[C@H]2[C@@H](O)CCN2C[C@@H]1O,-16%
COC(=O)[C@@H]1C[C@H]2CC[C@H](O)C[C@H]2N1CC1CC1,2%
CCCN1[C@H](C(=O)OC)C[C@@H]2CC[C@@H](O)C[C@@H]21,19%
CCCN1C[C@H](C)N([C@H](c2ccc(C(=O)N(CC)CC)cc2)c2cccc(OC)c2)C[C@H]1C,13%&15%
Clc1ccccc1C(c1ccccc1)(c1ccccc1)n1cccn1,-7%
CCC1CN2CCC1CC2C(O)c1ccnc2ccc(OC)cc12 (stereo not given),14%
c1ccc(N=Nc2ccccc2)cc1,9%
O[C@@H]1CCCN2C[C@@H](O)[C@@H](O)C12 (stereo not given in full),17%
CC1Cc2c(cnc3c2CN(C)CC3)CO1 (stereo not given),-24%
NC(N)=NN=C(/C=C/c1ccc([N+](=O)[O-])o1)/C=C/c1ccc([N+](=O)[O-])o1,50µM*
CN1C(=S)CN=C(c2ccccc2)c2cc(Cl)ccc21,-2%
NC(=O)CNC(=O)[C@H](Cc1ccccc1)NC(=O)[C@H](CCCN=C(N)N)NC(=O)[C@@H](N)Cc1ccc(O)cc1,19%
C[C@@H]1O[C@@H](O[C@H]2C[C@@H](O)[C@]3(CO)[C@@H]4C(CC[C@]3(O)C2)[C@@]2(O)CC[C@H](C3=CC(=O)OC3)[C@@]2(C)C[C@H]4O)[C@H](O)[C@H](O)[C@H]1O (stereo not given in full),-10%&-9%
CCOc1ccc2cc(C#N)c(=O)oc2c1,8%&-8%
CNC(C)Cc1ccc(OC)cc1 (stereo not given),-6%
O=C(CC1NCCC[C@H]1O)Cn1cnc2cc(Br)c(Cl)cc2c1=O (stereo not given in full),?
C=C(C)C(=O)CP(=O)(OCC)OCC,-4%
COc1cc2c3cc1Oc1cc(ccc1O)C[C@@H]1c4c(cc(OC)c(O)c4Oc4cccc(c4)C[C@H]3N(C)CC2)CC[N+]1(C)C,-17%
CNCC/C=C/c1cccnc1,7%
CCCCC/C=C\C=C\[C@H](CCCCCCCC(=O)O)OO,20%&5%
CC(=O)OC1C[C@H](O[C@@H]2C(O)C[C@H](O[C@@H]3C(O)C[C@@H](OC4CC[C@]5(C)C(CCC6C5CC(O)[C@@]5(C)C(C7=CC(=O)OC7)CC[C@@]65O)C4)OC3C)OC2C)O[C@H](C)[C@H]1O[C@H]1OC(CO)C(O)C(O)C1O (stereo not given in full),30%
CC(C)(C)NCC(O)c1cc(Cl)c(N)c(C(F)(F)F)c1 (stereo not given),14%
c1ccc(C2(N3CCCC3)CCCCC2)cc1,-9%
CC[C@@]1(O)CC(O)c2c(cc3c(c2O)C(=O)c2c(O)ccc(O)c2C3=O)C1C(=O)OC (stereo not given in full),14%
C[C@@H]1CC[C@H]2[C@H](C)[C@H]3CC[C@@]4(O)[C@@H]5CC(=O)[C@H]6CC(=O)CC[C@]6(C)[C@H]5C[C@H]4[C@@H]3CN2C1,34%[activator]
CCN1C[C@]2(COC)CC[C@H](OC)[C@@]34C5C[C@@H]6[C@@H](OC)C[C@@]7(OCO[C@@]7([C@@H](O)C23)[C@@H]14)C5[C@H]6OC (stereo not given in full),7%
CCC(Oc1ccc(Cl)cc1)C(=O)OC1CC2CCC(C1)N2C (stereo not given),5%
C[C@@H]1C[C@H]2CC[C@H](O2)[C@H](C)C(=O)O[C@@H](C)C[C@@H]2CC[C@@H](O2)[C@@H](C)C(=O)O[C@H](C)C[C@H]2CC[C@H](O2)[C@H](C)C(=O)O[C@@H](C)C[C@@H]2CC[C@@H](O2)[C@@H](C)C(=O)O1,6%
O=C(Nc1ccccc1)c1ccccc1I,-14%
CN[C@@H]1C[C@@]2(C)O[C@@H]([C@@H]1OC)n1c3ccccc3c3c4c(c5c6ccccc6n2c5c31)C(=O)NC4,-20%
CCC/C=C(\CCC)C(NP(=O)(c1ccccc1)c1ccccc1)c1ccccc1 (stereo not given),?
CN(C)CCO,4%
C[N+](C)(C)CCOC(=O)C(O)(c1ccccc1)c1ccccc1,7%
CC1=C2C3OC(=O)[C@H](C)[C@H]3CC[C@@]2(C)C=CC1=O (stereo not given in full),17%
C[C@]12CCC3C(CCC4=C(Cl)C(=O)CC[C@@]43C)C1CCC2O (stereo not given in full),6%
O=C1CC2OCC=C3CN4CCC56c7ccccc7N1C5[C@H]2[C@H]3C[C@H]46 (stereo not given in full) (tested in a mixture with another compound),22%
CO/C1=C\C(C)=C\[C@@H](C)[C@@H](O)[C@@H](C)C/C(C)=C/C=C/[C@H](OC)[C@@H]([C@@H](C)[C@@H](O)[C@H](C)[C@@]2(O)C[C@@H](O)[C@H](C)C(C(C)C)O2)OC1=O (stereo not given in full),-5%
CC(=O)O[C@H]1C(=O)[C@@]2(C)C([C@H](OC(=O)c3ccccc3)[C@]3(O)C[C@H](OC(=O)[C@H](O)[C@@H](NC(=O)c4ccccc4)c4ccccc4)C(C)=C1C3(C)C)[C@]1(OC(C)=O)CO[C@@H]1C[C@@H]2OC(=O)[C@H](C)NC(=O)c1ccc(-c2c3ccc(=O)cc-3oc3cc(O)ccc23)c(C(=O)O)c1 (stereo not given in full),-1%
COC1=C[C@]23CCCN2CCc2cc4c(cc2[C@@H]3[C@@H]1O)OCO4,1%
CCCCCCCCCCCCCC(=O)O[C@@H]1[C@@H](C)[C@@]2(O)[C@H](C=C(CO)C[C@]3(O)C(=O)C(C)=C[C@@H]23)[C@@H]2C(C)(C)C12OC(C)=O (stereo not given in full),7%
CC/C=C\C/C=C\C/C=C\C/C=C\C/C=C\CCCC(N)=O,-10%
C=CCN1CCC23c4c5ccc(O)c4OC2/C(=N/N=C2\CCC4(O)C6Cc7ccc(O)c8c7C4(CCN6CC=C)C2O8)CCC3(O)C1C5 (stereo not given),-9%
CC1OC(=O)C(C(C)C)NC(=O)C(C(C)C)OC(=O)C(C(C)C)NC(=O)C(C)OC(=O)C(C(C)C)NC(=O)C(C(C)C)OC(=O)C(C(C)C)NC(=O)C(C)OC(=O)C(C(C)C)NC(=O)C(C(C)C)OC(=O)C(C(C)C)NC1=O (stereo not given),27%&22%
C[C@H]1C[C@H](C)C(=O)[C@@H]([C@H](O)CC2CC(=O)NC(=O)C2)C1,17%
CON(C)C(=O)Nc1ccc(Br)c(Cl)c1,-8%
CCOC(=O)c1ncn2c1[C@H]1CCCN1C(=O)c1cc(OC)ccc1-2,-6%
COP(=S)(OC)Oc1ccc([N+](=O)[O-])c(C)c1,?
O=C1NC(=O)c2c1c1c3ccccc3[nH]c1c1[nH]c3ccccc3c21,-18%
OC[C@@H]1[C@@H](O)[C@H](O)[C@H]2[C@@H](O)CCN21,0%
NC(=O)COc1c(F)cc(SCCNS(=O)(=O)c2ccccc2)cc1F,5%
N[C@H](C(=O)O)c1cc(=O)[nH]o1,3%
ClC=C(Cl)Cl,18%
Cc1cnc2c(C(=O)O)c(Cl)ccc2c1,1%
CO/C1=C\C(C)=C\[C@@H](C)[C@@H](O)[C@@H](C)C/C(C)=C/C=C\[C@H](OC)C([C@@H](C)[C@@H](O)[C@H](C)[C@@]2(O)C[C@@H](O)[C@H](C)C(C(C)C)O2)OC1=O (stereo not given in full),34%[activator]
C[C@@H]1O[C@H](O[C@@H]2C=C3CC[C@H]4[C@@H](CC[C@]5(C)[C@@H](c6ccc(=O)oc6)CC[C@]45O)[C@@]3(C)CC2)[C@@H](O)[C@H](O)[C@@H]1O,-2%
COc1cc2c(cc1OC)-c1c(OC)c(OC)c(C=O)c3c1[C@H](C2)N(C)CC3,-8%
COC(=O)[C@H]1[C@@H](c2ccccc2)[C@@]2(c3ccccc3)Oc3ccccc3[C@@]1(O)[C@@H]2O,6%
CCC1(c2ccccc2)CCC(=O)NC1=O (stereo not given),17%
CN1Cc2c(ccc3c2OCO3)[C@@H]2[C@@H](O)Cc3cc4c(cc3[C@@H]21)OCO4,10%
# (cont.)
SMILES,Sfp PPTase inh
S=C=NCc1ccccc1,5%
CN1CCc2cc(O)c(O)cc2C1Cc1ccc(O)c(O)c1 (stereo not given),?
Cc1[nH]cnc1CCN,-12%
C[C@](O)(CS(=O)(=O)c1ccc(F)cc1)C(=O)Nc1ccc(C#N)c(C(F)(F)F)c1,12%
CNC(=O)Oc1ccccc1C(=O)Nc1ccccc1,1%
O=C1NO[C@@H]2CN[C@@H](C(=O)O)[C@H]12,-2%
c1cncc([C@@H]2CCCCN2)c1,23%&1%
Oc1ccc2c3c1O[C@H]1c4[nH]c5c(c4C[C@@]4(O)[C@@H](C2)N(CC2CC2)CC[C@]314)C[C@]1(O)[C@H]2Cc3ccc(O)c4c3[C@@]1(CCN2CC1CC1)[C@@H]5O4,-7%
C=CC[N+]1(C)CCC23c4c5ccc(O)c4O[C@H]2C(=O)CC[C@@]3(O)C1C5 (stereo not given in full),56µM*
C=C[C@@H]1CN2CC[C@H]1C[C@H]2[C@H](O)c1ccnc2ccccc12,18%
O=C1C(I)=CC(=C(c2cc(I)c(O)c(I)c2)c2ccccc2C(=O)O)C=C1I,32µM*
CCCCCCCCCCCC[N+](C)(C)CCOc1ccccc1,50µM*
ClC1=C(Cl)C2(Cl)C(CBr)CC1(Cl)C2(Cl)Cl (stereo not given),-1%
CCC(=O)OC1CCC2C3CCC4=CC(=O)CC[C@@]4(C)C3CC[C@]12C (stereo not given in full),-10%
COC(=O)[C@@]1(OC)C[C@@H]2O[C@@]1(C)n1c3ccccc3c3c4c(c5c6ccccc6n2c5c31)C(=O)N(C)C4,10%
C[C@@H]1O[C@@H](O[C@H]2C[C@@H](O)[C@@]3(CO)[C@H]4[C@H](O)C[C@]5(C)[C@@H](C6=CC(=O)OC6)CC[C@]5(O)[C@H]4CC[C@@]3(O)C2)[C@@H](O)[C@H](O)[C@H]1O,8%
Nc1nc(O)c(-c2ccccc2)o1,-10%
CCCCC/C=C\C/C=C\C/C=C\C/C=C\CCCC(=O)NCCc1ccc(O)c(O)c1,45µM*!
CC(=O)[C@@H]1CC[C@H]2[C@H]3CC[C@H]4C[C@@H](O)CC[C@]4(C)[C@@H]3C(=O)C[C@@]12C,-3%
COc1cc(N)c(Cl)cc1C(=O)N[C@@H]1CN2CCC1CC2,10%
O=C1CC2OCC=C3CN4CCC56c7ccccc7N1C5C2C3CC46 (stereo not given),-13%
CC1N(P(=O)(c2ccccc2)c2ccccc2)CC(O)(c2ccccc2)CC12CC2 (stereo not given),-4%
C[C@@H]1O[C@H](C[N+](C)(C)C)C[C@@H]1O,22%
CN1C2CCC1CC(OC(c1ccc(F)cc1)c1ccc(F)cc1)C2 (stereo not given),12%
CC1(C)C(O)CC(O)[C@]2(C)C1CC(=O)[C@]1(C)C2CC[C@@]2(C)C(c3ccoc3)OC(=O)C3OC321 (stereo not given in full),11%
c1ccc2sc(SNC3CCCCC3)nc2c1,?
C=C1Nc2ccccc2C(=O)N1c1ccccc1C,10%
NC[C@H](CC(=O)O)c1ccc(Cl)cc1,18%
CN(C)C(=O)Oc1cc(OC(=O)N(C)C)cc([C@@H](O)CNC(C)(C)C)c1,6%
O=S(=O)(c1ccc(Cl)cc1)c1cc(Cl)c(Cl)cc1Cl,-20%
CC1(C)C2C[C@@H](O)[C@]3(C)C(CC[C@@]4(C)[C@H](c5ccoc5)C[C@H]5O[C@]543)[C@@]2(C)[C@@H](O)C[C@H]1O (stereo not given in full),-24%
CN1CCCCC1Cn1cc(C(=O)c2cc([N+](=O)[O-])ccc2I)c2ccccc21 (stereo not given),-21%
CC(CCC(=O)O)C1CCC2C3CC[C@H]4CC(O)CC[C@@]4(C)C3CC[C@@]12C (stereo not given in full),-13%
COc1ccc2c3c1O[C@H]1C(=O)CC[C@@]4(O)C(C2)N(CC2CC2)CCC314 (stereo not given in full),12%
Cc1ccc2c(c1)Cc1c(C(=O)NC3CCCCC3)nn(-c3ccc(Cl)cc3Cl)c1-2,9%
COC(=O)[C@@H]1C[C@@]2(O)[C@H](O)[C@H](O)[C@H](O)C[C@H]2N1Cc1cccnc1,10%
C/C=C1/CN2CC[C@]34C(=C(C=O)[C@H]1C[C@@H]23)Nc1ccccc14,?
C/C=C1\C2C=C(C)CC1(N)c1ccc(=O)[nH]c1C2 (stereo not given),?

# Some of the entries above, reformatted:
Compound | Sfp PPTase inh
CC1(C)C(O)CC(O)[C@]2(C)C1CC(=O)[C@]1(C)C2CC[C@@]2(C)C(c3ccoc3)OC(=O)C3OC321 (stereo not given in full) | 11%
c1ccc2sc(SNC3CCCCC3)nc2c1 | ?

# In the list so far, these contain a carbonyl joined to an NH by a bond outside any ring:
SMILES,Sfp PPTase inh
NC(=O)CNC(=O)[C@H](Cc1ccccc1)NC(=O)[C@H](CCCN=C(N)N)NC(=O)[C@@H](N)Cc1ccc(O)cc1,19%
O=C(Nc1ccccc1)c1ccccc1I,-14%
CC(=O)O[C@H]1C(=O)[C@@]2(C)C([C@H](OC(=O)c3ccccc3)[C@]3(O)C[C@H](OC(=O)[C@H](O)[C@@H](NC(=O)c4ccccc4)c4ccccc4)C(C)=C1C3(C)C)[C@]1(OC(C)=O)CO[C@@H]1C[C@@H]2OC(=O)[C@H](C)NC(=O)c1ccc(-c2c3ccc(=O)cc-3oc3cc(O)ccc23)c(C(=O)O)c1 (stereo not given in full),-1%
CC/C=C\C/C=C\C/C=C\C/C=C\C/C=C\CCCC(N)=O,-10%
CON(C)C(=O)Nc1ccc(Br)c(Cl)c1,-8%
NC(=O)COc1c(F)cc(SCCNS(=O)(=O)c2ccccc2)cc1F,5%
C[C@](O)(CS(=O)(=O)c1ccc(F)cc1)C(=O)Nc1ccc(C#N)c(C(F)(F)F)c1,12%
CNC(=O)Oc1ccccc1C(=O)Nc1ccccc1,1%
CCCCC/C=C\C/C=C\C/C=C\C/C=C\CCCC(=O)NCCc1ccc(O)c(O)c1,45µM*!
COc1cc(N)c(Cl)cc1C(=O)N[C@@H]1CN2CCC1CC2,10%
Cc1ccc2c(c1)Cc1c(C(=O)NC3CCCCC3)nn(-c3ccc(Cl)cc3Cl)c1-2,9%
